High-throughput results as filed in PubChem BioAssay.
VDR inhibitor = vitamin D3 receptor (human) inhibition | P11473 | VDR-SRC2-3 peptide fluorescence polarization, 2 h | Potency, µM, inactives show max response, negative = inhibition, usual class: inhibitors | hit rate 0.93% among 400,000 | AID 504847; active = well fitted inhibition curve with a large enough effect; inconclusive = small, poorly fitted or top-dose-only effect, or another doubt; inactive = no such curve, though single readings can be large or run the other way; note: series mostly up to about 120 µM
Target sequence (P11473 whole entry, looked up): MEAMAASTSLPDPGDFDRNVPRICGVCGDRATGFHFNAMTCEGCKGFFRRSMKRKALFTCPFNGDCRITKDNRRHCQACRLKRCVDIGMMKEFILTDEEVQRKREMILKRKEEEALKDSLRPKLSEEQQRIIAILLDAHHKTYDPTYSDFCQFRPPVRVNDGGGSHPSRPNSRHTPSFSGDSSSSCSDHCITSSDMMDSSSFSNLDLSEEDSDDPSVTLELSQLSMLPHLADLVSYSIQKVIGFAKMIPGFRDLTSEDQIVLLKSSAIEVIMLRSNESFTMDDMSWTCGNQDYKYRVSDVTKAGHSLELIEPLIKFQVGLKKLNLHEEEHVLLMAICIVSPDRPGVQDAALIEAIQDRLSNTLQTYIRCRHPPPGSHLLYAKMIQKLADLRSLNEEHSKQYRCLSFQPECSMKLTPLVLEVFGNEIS
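Signal is fluorescence polarization, reporting how far test compounds block the interaction of VDR with the SRC2-3 coregulator peptide after a 2 h room-temperature incubation.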
The depositor's hits bear a star; ? = inconclusive; & = joins results of further samples; [ ] = another dose, or the depositor's remark. % is set by controls: 0 for no effect and ±100 for the full control effect; potency is the fitted concentration of half-maximal effect. This is a subset; the hit share may differ from the screen's.

Compound | VDR inhibitor
CCCCN(C(=O)CCCSc1nc2ccccc2[nH]1)c1c(N)n(Cc2ccccc2)c(=O)[nH]c1=O | -12%
COc1ccccc1N1CCN(C(=O)COc2cc(C)cc(C)c2)CC1 | 9%
COc1ccc(-c2csc3nc(-c4ccc(C)cc4)oc(=O)c23)cc1OC | -13%&-9%
COc1ccc(CCNC(=O)CN(c2ccc(OC)c(OC)c2)S(=O)(=O)c2ccccc2)cc1OC | 32%[activator]
CC1C(C(=O)Nc2ccccc2)CCCC1(C)C(=O)O (stereo not given) | 5%
COc1ccccc1OCc1nc(C#N)c(N2CCCC2)o1 | -9%
CN(C(=O)CSc1nnc2n1CCCCC2)C1(C#N)CCCCC1 | -8%
O=C(NNC(=O)C1CCCCC1)C(=O)NC1CCCCC1 | 14%
O=C1CCN(C2CCN(Cc3nc(Cc4ccccc4F)no3)CC2)CCN1 | -14%
O=C(Cc1ccccc1[N+](=O)[O-])NCc1ccc(Cl)cc1Cl | 11%
CCOC(=O)C(NC(=O)Nc1cccc(C)n1)(OCC(F)(F)F)C(F)(F)F (stereo not given) | -7%
CCOc1ccc(N2CC(C(=O)N3CCCCC3)CC2=O)cc1 (stereo not given) | 12%
CCOC(=O)C1=C(O)/C(=C\c2cc(C)n(-c3ccc(F)cc3)c2C)N=C1C | 3%
COc1ccc(-c2ccc(-c3noc(C)n3)c(OC)n2)cc1 | 5%
CCC(=O)N1CCN(c2cc3c(cc2F)c(=O)c(C(=O)O)cn3CC)CC1 | 6%

The final 7 records of the section before are carried over, then new ones follow.
Compound | VDR inhibitor
O=C1CCN(C2CCN(Cc3nc(Cc4ccccc4F)no3)CC2)CCN1 | -14%
O=C(Cc1ccccc1[N+](=O)[O-])NCc1ccc(Cl)cc1Cl | 11%
CCOC(=O)C(NC(=O)Nc1cccc(C)n1)(OCC(F)(F)F)C(F)(F)F (stereo not given) | -7%
CCOc1ccc(N2CC(C(=O)N3CCCCC3)CC2=O)cc1 (stereo not given) | 12%
CCOC(=O)C1=C(O)/C(=C\c2cc(C)n(-c3ccc(F)cc3)c2C)N=C1C | 3%
COc1ccc(-c2ccc(-c3noc(C)n3)c(OC)n2)cc1 | 5%
CCC(=O)N1CCN(c2cc3c(cc2F)c(=O)c(C(=O)O)cn3CC)CC1 | 6%
COc1ccc(COc2cc(-c3cccc(OC)c3)nc3ccc(NC(C)=O)cc23)cc1 | 5%&2%
CC(C)CNC(=O)NC1C(NC(=O)NCC(C)C)N(C)C(=O)N1C (stereo not given) | 0%
O=C(N/C(=C/c1ccc(Br)cc1)C(=O)N1CCCC1=O)c1ccco1 | 8%
CCC(=O)Nc1ccccc1C(=O)NC1CCCCC1 | 4%
CNC(=O)CC1C(=O)N(Cc2ccccc2)C(=S)N1NC(=O)c1cccc(F)c1 (stereo not given) | 1%
CC(C)n1nnnc1SCC(=O)c1c(N)n(C2CC2)c(=O)[nH]c1=O | -16%
O=C(O)CC/C(=C\c1ccc2c(c1)OCO2)c1nc2ccccc2s1 | -18%
CN1CCN(C(=O)CN(c2cccc(Cl)c2)S(=O)(=O)c2ccccc2)CC1 | -6%
Cc1ccc(NC(=O)Cn2c(=O)n(Cc3ccc4c(c3)OCO4)c(=O)c3oc4ccccc4c32)cc1C | 5%
S=c1[nH]nc(-c2ccccc2)n1C1C=CCCC1 (stereo not given) | -6%
COC(=O)c1cc(=O)n(Cc2cccs2)c(=NCc2cccs2)s1 | 6%
C=CCOc1ccccc1C1NC(=O)NC(C)=C1C(=O)NCc1ccccc1 (stereo not given) | 2%
O=C(Oc1cccc(-n2cnnn2)c1)c1ccccc1Cl | -12%
CC1CCCN(S(=O)(=O)c2ccc3c(c2)c(=O)nc2ccccn23)C1 (stereo not given) | -1%&3%
O=C(CCNC(=O)c1ccccc1)Nc1ccc(S(=O)(=O)Nc2ncccn2)cc1 | 18%
CSc1nc(-c2ccc(Cl)cc2)nn1S(=O)(=O)c1ccc(Cl)cc1 | 0%
COc1ccc2c(c1OC)C(=O)N1C2SC(C)(C)[C@H]1C(=O)NC1CC1 (stereo not given in full) | -22%
O=C(NCCc1ccccc1)c1cccc(NC(=O)C2CCC2)c1 | -4%
Fc1cc(F)nc(NCc2ccccc2)n1 | -3%
Cc1cc(NC(=O)CSc2ncccc2C(=O)O)no1 | -4%
COCCCN(C(=O)c1ccco1)c1nc(-c2cc(OC)ccc2OC)cs1 | -4%
CCCCc1nn2c(=O)cc(COC(=O)c3ccc(NC(=O)C4CCCCC4)cc3)nc2s1 | 18%
CC(C)C(=O)Nc1cccc(C(=O)OCC(=O)c2ccc(Cl)cc2Cl)c1 | -10%
O=C(O)CC12CC3CC(C1)CC(n1cncn1)(C3)C2 | 25%
O=C(O)CCC(=O)Nc1nc(-c2ccccc2)cs1 | 4%
O=C(CSc1nc2c(c(=O)[nH]1)CN(Cc1ccc(F)cc1)CC2)Nc1cccc(C(F)(F)F)c1 | 2%
O=C(Cn1c(=O)n(CC2CCCO2)c(=O)c2ccccc21)Nc1cccc(Cl)c1 (stereo not given) | -12%
Cc1cccc(C)c1OC(=O)CSc1nnc(-c2ccc3c(c2)OCO3)o1 | 8%
COC(=O)C1CCN(S(=O)(=O)c2cc3c4c(c2)CC(=O)N4CCC3)CC1 | -1%
Cc1cccc(-c2nc(CN3CCCC(C(=O)NCc4ccc(Cl)cc4)C3)c(C)o2)c1 (stereo not given) | -23%
Clc1cc(Cl)c(OCc2nc(-c3ccccn3)no2)cc1Cl | -14%
CCCCOc1ccc(C(=O)N/C(=C/C=C/c2ccccc2)C(=O)O)cc1 | -17%
NS(=O)(=O)c1ccc(CCNC(=O)CNC(=O)Cc2cccc3ccccc23)cc1 | -23%
CN1C[C@@H]2C(c3ccc(C(F)(F)F)cc3)C3(c4cccnc4)CC2(C3)[C@H]1c1ccccc1 (stereo not given in full) | -6%
COc1ccc(Cc2nc3ccc(C(=O)NC(C)Cc4ncccc4C)cc3o2)cc1OC (stereo not given) | 5%
CSc1ccc(C(=O)C2CCCN(C(=O)c3cccc(N4CCOCC4)c3)C2)cc1 (stereo not given) | 4%
COc1cccc(CNCCSc2nnnn2C)c1OCc1ccc(Cl)cc1Cl | -1%
COc1ccc(NC(=O)c2ccc(COc3ccccc3Br)o2)c(OC)c1 | -10%
CNC(=O)c1[nH]cnc1C(=O)N[C@@H](C)C(=O)OCc1ccccc1 | -2%
CCCn1c(CNC(=O)c2ccc(F)cc2)nc2ccccc21 | -7%
CCc1cc(=O)oc2cc(OC(=O)CN3C(=O)NC4(CCCC4)C3=O)ccc12 | ?
Cc1ccc(C)n1-c1c(C(=O)NN)cnn1-c1ccccc1 | 8%
CC(C)CCOc1ccc(C(=O)NCCC(=O)N2CCOCC2)cc1 | 5%
CCOC(=O)C(CC)/C(C)=N\NC(=O)c1cccc(C)c1 (stereo not given) | -22%
O=C(Nc1ccc2nc3n(c(=O)c2c1)CCCCC3)c1c(F)ccc([N+](=O)[O-])c1F | ?
CC(=O)c1cccc(NC(=O)COC(=O)CCC(=O)c2ccc(F)cc2)c1 | -9%
CCOC(=O)c1[nH]c2ccc(OC)cc2c1NC(=S)N1CCN(c2ccccn2)CC1 | 6%
O=C(OCc1ccc(Cl)cc1Cl)c1cccnc1Cl | 3%
CCC(=O)N1CCN(c2ccccc2NC(=O)COc2cc(C)ccc2C(C)C)CC1 | -5%
COc1ccccc1NC(=O)c1ccc(NC(=O)CN2C(=O)CN(C)C2=O)cc1 | -12%
Cc1ccc(C(=O)Nc2ccc3oc(-c4cc(Br)ccc4Cl)nc3c2)cc1 | -12%
Cn1c(CNC(=O)c2ccc(F)cc2)cc2ccccc21 | -11%
Cc1ccc2ccccc2[n+]1CCCS(=O)(=O)[O-] | 5%
Cc1ccc2cc(CN(CCCN(C)C)C(=S)NCc3ccccc3)c(=O)[nH]c2c1C | 2%
C=CCOc1ccc(C2/C(=C(\O)c3ccc(F)cc3)C(=O)C(=O)N2CCCN(C)C)cc1 (stereo not given) | -22%
CCOC(=O)c1c(S(=O)(=O)N2CCC(C(=O)NCc3ccccc3OC)CC2)c(C)n(C)c1C | 1%
CCCCC(=O)NC1(C(F)(F)F)C(=O)Nc2c1c(=O)[nH]c(=O)n2-c1ccc(F)cc1 (stereo not given) | -1%
CC(C)NCC(O)(c1ccc(Cl)cc1)c1ccc(Cl)cc1 | -2%
CN(C)/C=C/C(=O)c1ccc(C(F)(F)F)cc1F | -7%
O=C(CSCC(=O)Nc1nccs1)Nc1ccccc1 | -15%

The list goes on.
Compound | VDR inhibitor
O=C(CCc1ccccc1)Nc1c(F)c(F)c(F)c(F)c1F | 8%
N/C(=N\OC(=O)CCC1CCCCC1)c1cccnc1 | 1%
CCN(CC)S(=O)(=O)c1ccc(Cl)c(NC(=O)COC(=O)c2nc3nc(C)cc(C)n3n2)c1 | -11%
Cc1ccc(C)c(Cn2nc3c4ccccc4n(Cc4ccccc4)cc-3c2=O)c1 | -1%
CCNC(=O)[C@H]1O[C@@H](n2cnc3c(N)nc(NCCc4ccc(CCC(=O)O)cc4)nc32)[C@H](O)[C@@H]1O | -18%&-5%
CCOC(=O)/C=C/CCCC=O | 6%
CC(NC(=O)Nc1nccs1)(C(F)(F)F)C(F)(F)F | 0%
CCN(Cc1ccncc1)C(=O)CCc1nnc(CCC2CCCCC2)o1 | 6%
CCOC(=O)C1(Cc2cccc(Cl)c2)CCCN(C(=O)c2cnn(CC)c2)C1 (stereo not given) | -3%
CC(Sc1ccccc1)C(=O)NN=C1CCCCCCC1 (stereo not given) | 14%
CCc1ccc(NC(=O)[C@H](Cc2ccccc2)NC(=O)C2CCN(C(=O)[C@@H](N)CC(C)C)CC2)cc1 | -19%
CCOc1ccc(S(=O)(=O)NCc2ccco2)c2ccccc12 | -12%
O=C(NCc1ccco1)C(Cc1ccccc1)N1C(=O)C2C3C=CC(C3)C2C1=O (stereo not given) | -23%
CNC(=O)CN(c1cccc(Br)c1)S(C)(=O)=O | -3%
Cc1ccc2onc(CNC(=O)N3CCN(c4cc(Cl)ccc4C)CC3)c2c1 | -5%
CN(c1cccc(Cl)c1)S(=O)(=O)c1cccc(C(=O)Nc2nc3ccccc3[nH]2)c1 | -12%
O=C(O)c1c2c(nc3ccc(S(=O)(=O)N4CCC(C(=O)N5CCCCC5)CC4)cc13)CCCC2 | -10%
CC(C)NC(=O)c1c(CSc2ccccc2)noc1C(=O)NCc1ccccc1 | -27%
Cc1ccc(-n2cc(CNCCc3cscn3)c(-c3ccc(F)cc3)n2)cc1 | -8%
CCc1ccc(CN(C)C(=O)CCc2nnc(-c3ccc(-c4ccccc4)cc3)o2)nc1 | -13%
CCOCCc1c(O)nc(SCCOc2ccc(C)c(C)c2)[nH]c1=O | -11%
COc1ccc(OC)c(-c2cc(C(=O)Nc3cc(C)on3)no2)c1 | 0%
COc1ccccc1CNC(=O)CCS(=O)(=O)c1ccc2c(c1)CCN2C(C)=O | -13%&-1%
O=C(Cn1ncc2c(Cl)cccc21)NCc1cccc(Br)c1 | 13%
CN1C(=O)C2(Nc3ccccc3-c3nc4ccccc4n32)c2ccccc21 (stereo not given) | -15%
O=C(OC(c1ccccc1)c1nccc2ccccc12)c1ccccc1 (stereo not given) | -14%
C=CCN(C(=O)c1csnn1)C(C(=O)NCc1ccc(F)cc1)c1cccs1 (stereo not given) | 3%
COCC(=O)OCC(=O)Nc1ccc(Cl)cc1[N+](=O)[O-] | 9%
O=C(O)CCCc1ccc2ccc3cccc4ccc1c2c34 | -18%
O=C(CCN1CCN(Cc2ccccc2)CC1)Nc1cccc(Cl)c1 | -2%
c1ccc(CN(Cc2ccccc2)c2c3c(nc4ncnn24)CCC3)cc1 | -8%
CCOc1ccccc1NC(=O)COC(=O)c1cnc(C)cn1 | 6%
Cc1nc(NC(=O)COC(=O)CCC(=O)c2cccs2)c(Cl)cc1Cl | -2%
COc1ccc(/C=N/NC(=O)Cn2nc([N+](=O)[O-])cc2C)c(OC)c1OC | -2%
COc1ccc(S(=O)(=O)N2CCCCC2)cc1NC(=O)c1cccnc1SC | -6%
COc1ccc(C2CC(c3cccs3)=NN2c2ccc(C=O)cc2)cc1 (stereo not given) | 10%
COc1ccc(N2C(=O)CC(Sc3ncn[nH]3)C2=O)c(OC)c1 (stereo not given) | 0%
O=c1c2ccccc2nc2ccc(N3CCOCC3)nn12 | -3%
CCc1nccn1S(=O)(=O)c1ccc2ccc(C)cc2c1 | -1%
COc1cccc(NC(=O)c2oc3ccccc3c2NC(=O)c2ccc(F)c(F)c2)c1 | -23%
CC(C)NC(=O)NC(=O)COC(=O)c1cc[n+]([O-])cc1 | -25%
C=CCNC(N)=S | ?
CC(C)(C)C(=O)CSc1ncnc2c1cnn2-c1ccccc1 | 12%
Clc1cccc(OCCCn2ccnc2)c1 | -11%
O=C(COc1cccc(C(F)(F)F)c1)Nc1ccc(S(=O)(=O)N2CCCCC2)cc1 | -2%
O=C1NCN(C2CCCCC2)CN1 | 7%
CCOc1ccccc1CNc1nc2nc(C)c(CC(=O)OC)c(=O)n2[nH]1 | 10%
CC(C)Cc1ccc(CN2CCCC(NC(=O)CCN3CCCCC3=O)C2)cc1 (stereo not given) | 19%
CCN(CC(=O)NC1CCS(=O)(=O)C1)S(=O)(=O)c1cccc(C(C)=O)c1 (stereo not given) | -17%
CC1CCN(CC(=O)n2c3c(c4ccccc42)CCCC3)CC1 | -7%
COc1cccc(NC(=O)c2ccc(CNS(=O)(=O)c3ccc4c(c3)C(C)(C)C(=O)N4C)cc2)c1 | 7%
